Screening data: PubChem BioAssay, National Center for Advancing Translational Sciences (NCATS)
StopGo FLuc: Primary qHTS Assay for Foot and Mouth Disease Virus Antivirals against NCGC Sytravon and CBC Compound Libraries: Firefly Luciferase Signal; 120,000 compounds, 0.23% hits; HEK cells with a luciferase reporter of 2A StopGo recoding; Potency, µM (doses to about 57.5 µM), without a hit: top-dose signal change, negative = less light; active = well fitted falling curve with a large enough effect; inconclusive = small, poorly fitted or top-dose-only effect; inactive = no such curve, though single readings can be large or run the other way; note: nearly all actives have a fitted effect of over 60% in size; overnight with compound
2A Renilla: Primary qHTS Assay for Foot and Mouth Disease Virus Antivirals against NCGC Sytravon and CBC Compound Libraries: Renilla Luciferase Signal | 120,000 compounds, 0.32% hits | HEK cells with a luciferase reporter of 2A StopGo recoding | Potency, µM (doses to about 57.5 µM), without a hit: at the top dose signal change, negative = less light; active means well fitted falling curve with a large enough effect; inconclusive means small, poorly fitted or top-dose-only effect; inactive means no such curve, though single readings can be large or run the other way; note: nearly all actives have a fitted effect of over 55% in size; overnight with compound
Numbers without * were called inactive; ? = inconclusive; & = joins results of further samples; [ ] = dose if it differs, or a comment. % is set by controls: 0 for no effect and ±100 for the full control effect; potency is the fitted concentration of half-maximal effect. An excerpt, so the mix of outcomes need not match the whole.

> COc1ccc(-c2c(C)c3cc(OC(C)=O)ccc3oc2=O)cc1
  StopGo FLuc: 60%[activator]
  2A Renilla: 73%[activator]

> N#Cc1ccc(/C=C/C(=O)N2CCCCC2c2ccc(C(F)(F)F)cc2)cc1 (stereo not given)
  StopGo FLuc: -12%
  2A Renilla: -2%

> O=C(Nc1ccccc1SC1CCCC1)c1ccccn1
  StopGo FLuc: 0%
  2A Renilla: -2%

> O=S(=O)(c1ccc(Cl)cc1)c1nc(-c2ccccc2Br)oc1N1CCOCC1
  StopGo FLuc: -5%
  2A Renilla: 124%[activator]

> O=C(CNC(=O)NCCc1ccccc1)NCC(F)(F)F
  StopGo FLuc: 15%
  2A Renilla: 5%

> COc1ccc(C2CC(=O)c3cnc4c(c3C2)c(=O)[nH]c(=O)n4CCC(C)C)cc1 (stereo not given)
  StopGo FLuc: 26%
  2A Renilla: 51%[activator]

> Cc1c(CCNC(=O)c2ccc(C(F)(F)F)cc2)sc2nc(-c3ccc(F)cc3)nn12
  StopGo FLuc: 28%
  2A Renilla: -14%

> CC(C)c1ccc(/C=C/C(=O)Nc2ccc(F)cc2F)cc1
  StopGo FLuc: 194%[activator]
  2A Renilla: -28%

> Cc1ccccc1-c1nc2cc(NC(=O)/C=C/c3ccco3)ccc2o1
  StopGo FLuc: 113%[activator]
  2A Renilla: 0%

> CCOC(=O)c1nc(Nc2ccc(OC)cc2)c2ccccc2n1
  StopGo FLuc: 91%[activator]
  2A Renilla: 24%

> Cc1ccc2c(C(=O)CN3CCN(CCO)CC3)c(C)[nH]c2c1
  StopGo FLuc: 7%
  2A Renilla: -8%

> CC(Sc1ncccn1)C(=O)O (stereo not given)
  StopGo FLuc: -1%
  2A Renilla: 3%

> COc1cc(C2N3CC4(C)CN2CC(C)(C3)C4O)ccc1O (stereo not given)
  StopGo FLuc: ?
  2A Renilla: -6%

> CCOC(=O)c1ccc(NC(=O)CN(c2ccc(C)cc2)S(=O)(=O)c2c(C)noc2C)cc1
  StopGo FLuc: -32%
  2A Renilla: 11%

> Cc1nc2cc(NC(=O)COc3ccc(C#N)cc3)ccc2o1
  StopGo FLuc: 9%
  2A Renilla: 10%

> CC(C)c1nc2cc(NC(=O)Cn3cnc4ccccc4c3=O)ccc2o1
  StopGo FLuc: 10%
  2A Renilla: -7%

> O=C(CCC1CCCC1)N1CCc2c([nH]c3ccccc23)C1c1ccc(Cl)cc1 (stereo not given)
  StopGo FLuc: ?
  2A Renilla: ?

> CC(C(=O)Nc1ccc(Br)cc1)n1cnc2c1c(=O)n(C)c(=O)n2C (stereo not given)
  StopGo FLuc: -16%
  2A Renilla: ?

> COc1ccc(OCc2ccc(C#N)cc2)c(C(C)=O)c1
  StopGo FLuc: 120%[activator]
  2A Renilla: 23%

> COc1ccc(-n2c(=O)c3c(c4cc(OC)ccc4n3C)n(Cc3ccc(F)cc3Cl)c2=O)cc1
  StopGo FLuc: 5%
  2A Renilla: -6%

> O=C(CN1C2=NCCN2c2ccccc21)c1ccc(Cl)cc1
  StopGo FLuc: -14%
  2A Renilla: -8%

> C(=N\N=C(c1ccccc1)c1ccccc1)/c1ccsc1
  StopGo FLuc: 0%
  2A Renilla: 17%

> COCCCNC(=O)CCCn1c(=O)c2cccn2c2cccnc21
  StopGo FLuc: 3%
  2A Renilla: 9%

> CCOc1ccc(NC(=O)Cn2cnc3nc4c(cc3c2=O)CCCC4)cc1
  StopGo FLuc: -10%
  2A Renilla: -11%

> CC(C)(C)c1nnc2c3cnn(-c4ccccc4)c3ncn12
  StopGo FLuc: 167%[activator]
  2A Renilla: -7%

> Cc1ccc(NC(=O)c2c(C)oc3ccc(O)c(CN4CCCC4)c23)c(C)c1
  StopGo FLuc: -10%
  2A Renilla: -10%

> COC(=O)c1c(C)[nH]c(C(=O)OC(C)C(=O)NC2CC2)c1C (stereo not given)
  StopGo FLuc: 69%[activator]
  2A Renilla: -17%

> Cc1c(OCC(=O)Nc2ccccc2)c(=O)ccn1CCO
  StopGo FLuc: 144%[activator]
  2A Renilla: -1%

> CN(C)C(=O)c1ccc(NC(=O)COC(=O)C2CCN(c3ccc(C(F)(F)F)cn3)CC2)cc1
  StopGo FLuc: 0%
  2A Renilla: -5%

> COc1cccc(-c2nc(C)c(C(=O)NCc3ccc(C(=O)O)cc3)s2)c1
  StopGo FLuc: 92%[activator]
  2A Renilla: 2%

> Cc1cc(C)cc(NC(=O)NCc2noc3ccccc23)c1
  StopGo FLuc: -12%
  2A Renilla: 78%[activator]

> CCN(CC)C(=O)c1sc2c(c1C)c(=O)n(-c1ccc(Cl)c(Cl)c1)c(=O)n2CC(=O)Nc1cccc(OC)c1
  StopGo FLuc: -19%
  2A Renilla: -14%

> COc1cc(C2CC(=O)Nc3nc(C)[nH]c(=O)c32)ccc1OCc1ccccc1 (stereo not given)
  StopGo FLuc: 36%[activator]
  2A Renilla: -9%

> N#Cc1ccccc1NC(=O)C(=O)NCC(c1cccnc1)N1CCc2ccccc21 (stereo not given)
  StopGo FLuc: 14%
  2A Renilla: -4%

> COC(=O)c1c(C)[nH]c(C(=O)OC(C)C(=O)NC2CCCCC2)c1C (stereo not given)
  StopGo FLuc: 0%
  2A Renilla: 0%

> O=C(Nc1cc(=O)[nH]c2nc(CCc3ccccc3)nn12)c1ccccc1Cl
  StopGo FLuc: 11%
  2A Renilla: -3%

> Cc1ccc(NC(=O)Cn2cnnc2C#N)cc1Cl
  StopGo FLuc: ?
  2A Renilla: ?

> Cc1ccc(CNC(=O)C(CC(C)C)NS(=O)(=O)c2ccc3c(c2)oc(=O)n3C)cc1 (stereo not given)
  StopGo FLuc: -33%
  2A Renilla: -9%

> O=C(CS(=O)(=O)c1cccc2nsnc12)NCc1ccccc1
  StopGo FLuc: 9%
  2A Renilla: 3%

> CC(C)c1nc2cc(NC(=O)c3n[nH]c(=O)c4ccccc34)ccc2o1
  StopGo FLuc: 190%[activator]
  2A Renilla: -7%

> CCc1ccc(S(=O)(=O)c2c(C(=O)c3ccccc3)cnc3ccc(CC)cc23)cc1
  StopGo FLuc: -17%
  2A Renilla: 0%

> O=C(CCc1nc2sc3c(c2c(=O)[nH]1)CCC3)NCc1ccccc1
  StopGo FLuc: -1%
  2A Renilla: -4%

> Cc1ccc2nc(COc3ccccc3C(=O)O)cn2c1
  StopGo FLuc: 213%[activator]
  2A Renilla: 52%[activator]

> Cc1ccccc1-n1c(SC(C)C(=O)c2ccc(Cl)cc2)nnc1N1CCOCC1 (stereo not given)
  StopGo FLuc: -7%
  2A Renilla: 85%[activator]

> Cc1ccc(N2C(=O)CSC23C(=O)N(CC(=O)NCc2ccccc2)c2ccccc23)cc1 (stereo not given)
  StopGo FLuc: 8%
  2A Renilla: 16%

Additional compounds.
molecule,StopGo FLuc,2A Renilla
CC(C)(C)OC(=O)N1CCC(c2c(C(=O)N3CCOCC3)cnn2-c2ccccc2Cl)CC1,-8%,-4%
CC(=O)OC1CCC2(C=O)[C@H]3CCC4(C)C(C5=CC(=O)OC5)CCC4(O)[C@@H]3CCC2(O)C1 (stereo not given in full),1.4µM*,2.5µM*
O=C(O)Cc1csc(-c2ccc(Cl)cc2)n1,-5%[11.5 µM],-4%
COc1ccc(-n2nnnc2C(C)(C)Nc2ccc(C(C)C)cc2)cc1OC,10%,75%[activator]
O=C(NCc1cccc(OC(F)F)c1)c1ccccc1-n1cnnn1,3%,2%
c1ccc(COc2cccc(CNC3CC3)c2)cc1,83%[activator],-9%
Cc1cc(OCC(=O)N2CCN(CCc3ccccn3)CC2)cc(C)c1Cl,-4%&-7%,-14%&-8%
COc1cc(OC)c(NC(=O)c2nn(C)c3c2COc2ccccc2-3)cc1Cl,12%,3%
COc1ccc(NC(=O)c2cccn2-c2nnc(N3CCCCC3)s2)c(OC)c1,7%,-2%
Cc1cc(C)c(S(=O)(=O)Nc2ccc(-c3ccc(N4CCCCC4)nn3)cc2)c(C)c1,144%[activator],194%[activator]
Cc1ccc2c(=O)cc(C(=O)N3CCOC34CCN(C)CC4)oc2c1,-15%,-9%
CN(Cc1ccc(Cl)c(Cl)c1)C(C(=O)NC1CC1)c1ccccc1 (stereo not given),-4%,1%
Cc1ccc(Cl)cc1N1CCN(C(=O)c2cc(S(=O)(=O)N3CCCC3)cn2C)CC1,-2%,4%
Cn1cc(C(=O)N2CCN(C(=O)C3CCCCC3)CC2)c2ccccc21,-10%,-8%
Cc1[nH]c(=O)[nH]c(=O)c1CCC(=O)Nc1nc(C(C)(C)C)cs1,16%,-4%

Record cards (already shown):
Entry for N#Cc1ccc(/C=C/C(=O)N2CCCCC2c2ccc(C(F)(F)F)cc2)cc1 (stereo not given) : StopGo FLuc = -12%; 2A Renilla = -2%
Entry for Cc1ccc(CNC(=O)C(CC(C)C)NS(=O)(=O)c2ccc3c(c2)oc(=O)n3C)cc1 (stereo not given) : StopGo FLuc = -33%; 2A Renilla = -9%
Entry for COC(=O)c1c(C)[nH]c(C(=O)OC(C)C(=O)NC2CC2)c1C (stereo not given) : StopGo FLuc = 69%[activator]; 2A Renilla = -17%

Look-ups from above:
`Cc1ccccc1-n1c(SC(C)C(=O)c2ccc(Cl)cc2)nnc1N1CCOCC1` (stereo not given) | 2A Renilla = 85%[activator]
`Cc1ccc(N2C(=O)CSC23C(=O)N(CC(=O)NCc2ccccc2)c2ccccc23)cc1` (stereo not given) | StopGo FLuc = 8%
`COc1ccc(NC(=O)c2cccn2-c2nnc(N3CCCCC3)s2)c(OC)c1` | StopGo FLuc = 7%
`O=C(Nc1cc(=O)[nH]c2nc(CCc3ccccc3)nn12)c1ccccc1Cl` | StopGo FLuc = 11%

Later entries:
molecule,StopGo FLuc,2A Renilla
CC(C)=CCN1CCN(Cc2ccccc2)CC1,0%,26%
CCOC(=O)c1sc(NC(=O)CCCC(=O)O)c(C#N)c1C,0%,-13%
Cc1cccc(-n2ccnc2SCC(=O)Nc2cc(C(F)(F)F)ccc2Cl)c1,15%,12%
Cc1nc2ccccc2c(C)c1C(=O)NC1CCCCC1,28%,19%
CCOC(=O)c1c(C)[nH]c(C(=O)C(C)N(C)Cc2ccccc2Cl)c1C (stereo not given),?,?
O=S1(=O)c2c(cccc2N2CCSCC2)Oc2ccccc2CN1Cc1cn(Cc2ccc(Cl)cc2)nn1,2%,93%[activator]
COc1ccc(NS(=O)(=O)c2ccc3[nH]c4c(c3c2)CCCCC4)cc1,?,-10%
COc1ccc(Cl)cc1NC(=O)C1CCCN(c2ncnc3onc(C)c23)C1 (stereo not given),7%,1%
Cc1cc(C)nc(SCC(=O)Nc2ccccc2C(N)=O)n1,0%,-6%
CCc1ccc(-n2c(C)nc3cc(C(=O)NCCc4ccccc4)ccc32)cc1,-4%,27%
Cc1nn(CC(=O)Nc2nc3ccc(F)cc3s2)c(=O)c2ccccc12,-1%,-11%
O=S(=O)(c1ccc(Cl)cc1)c1nnn2c1nc(NCc1cccs1)c1sccc12,-27%,-7%
CCCCN(CC)c1ccc(NS(=O)(=O)c2cccs2)cc1C(=O)O,4%,7%
COc1cc2c(-c3cccc(Cl)c3)nc3c(c(C)nn3-c3ccccc3)c2cc1OC,-10%,10%
CCN(C(=O)c1cnc(N2CCOCC2)c2ccccc12)c1cc(C)ccc1C,-10%&-17%,2%&-3%

In another format: results already given.
Below each SMILES – StopGo FLuc | 2A Renilla
> CCc1ccc(-n2c(C)nc3cc(C(=O)NCCc4ccccc4)ccc32)cc1
  -4% | 27%
> Cc1nn(CC(=O)Nc2nc3ccc(F)cc3s2)c(=O)c2ccccc12
  -1% | -11%
> O=S(=O)(c1ccc(Cl)cc1)c1nnn2c1nc(NCc1cccs1)c1sccc12
  -27% | -7%
> CCCCN(CC)c1ccc(NS(=O)(=O)c2cccs2)cc1C(=O)O
  4% | 7%
> COc1cc2c(-c3cccc(Cl)c3)nc3c(c(C)nn3-c3ccccc3)c2cc1OC
  -10% | 10%

More structures:
molecule,StopGo FLuc,2A Renilla
Cc1cc(C(=O)CSc2ncnc3ccccc23)c(C)n1CC(F)(F)F,?,?
CCCOc1ccc(CNC(=O)CCCN2C(=O)CSc3c2c(C)nn3-c2ccccc2)cc1,?,-14%
CC(=O)Oc1ccc2c(=O)c(Oc3ccc(F)cc3)c(C(F)(F)F)oc2c1,?,?
Cc1ccc(N(C(C)C(=O)N2CCCCCC2)S(C)(=O)=O)cc1 (stereo not given),-13%,-11%
Cc1ccc(Cc2nc3ccccc3nc2SCC(=O)N2CCCCC2)cc1,?,71%[activator]
CC(C)NC(=O)CNC(=O)c1cc2cc(F)ccc2[nH]1,22%,-13%
COc1ccc(OC)c(NC(=O)N2CCN(S(=O)(=O)c3ccc4c(ccn4C)c3)CC2)c1,16%,16%
Cc1cc(C)cc(NC(=O)Cn2c(=O)n(C(C)C)c(=O)c3oc4ccccc4c32)c1,-14%,-11%
CC(=O)N1CCN(c2ccc(NC(=O)C3(c4ccccc4)CCCC3)cc2)CC1,2%,-4%
O=C(Cn1cc(S(=O)(=O)c2ccc(F)cc2)c(=O)c2cc3c(cc21)OCO3)Nc1ccccc1,16%,-6%
Fc1ccc(-c2nc(-c3ccccc3)c(-c3ccc(F)cc3)o2)cc1,13%,10%
Cc1ccccc1NC(=O)C1CCN(C(=O)c2ccc(F)cc2)CC1,-23%,0%
O=C(Nc1ccc(Cl)cn1)Nc1ccccc1Cl,84%[activator],-1%
